High-throughput results from PubChem BioAssay.
Lassa entry inh – Lassa virus entry inhibition | Lassa virus pseudotype entry inhibition, cell reporter; control for the full effect not named in the record | Potency, µM (highest dose often 37.9 µM), without a hit: at the highest dose activity change, negative = inhibition, most hits filed as inhibitors | actives 1.2% (n = 300,000); active means well fitted inhibition curve with a large enough effect; inconclusive means small, poorly fitted or top-dose-only effect, or effect the other way; inactive means flat fitted curve, though single readings scatter; tested in HEK293 cells; note: % is set by controls: 0 for no effect and ±100 for the full control effect; nearly all actives have a fitted effect of over 50% in size; luciferase read-out
SARS PLP yeast – SARS-CoV PLP inhibition in yeast; Potency, µM (top dose mostly 32.9 µM), for the others: top-dose activity, positive = growth rescue; AID 485353; actives 0.19% (n = 330,000); S. cerevisiae expressing SARS-CoV PLpro, growth rescue; control for the full effect not named in the record; note: 0% is about no effect; nearly all actives have a fitted effect of over 55% in size; growth read by luminescence after 48 h
Marburg entry inh – blocks Marburg virus binding to or entry into cells; Marburg virus pseudotyped entry inhibition, cell reporter; control for the full effect not named in the record; about a third of the inactives were read at about 46 µM; Potency, µM (highest dose often 37.8 µM), inactives show at the top dose activity change, negative = inhibition, hits mostly inhibitors; actives 1.8% (n = 300,000); active = well fitted inhibition curve with a large enough effect; inconclusive = small, poorly fitted or top-dose-only effect, or effect the other way; inactive = flat fitted curve, though single readings scatter; tested in HEK293 cells; about a fifth of its hits are not listed in these tables; note: % is set by controls: 0 for no effect and ±100 for the full control effect; luciferase read-out
Cruzain inh noDet – inhibitors of Trypanosoma cruzi cruzain without detergent; P25779; purified cruzain, Z-FR-AMC fluorescence, no detergent; Potency, µM, for the others: max response, negative = inhibition, hits mostly inhibitors; actives 2.3% (n = 200,000); active = well fitted curve in the direction sought with a large enough effect; inconclusive = small, poorly fitted or top-dose-only effect, or another doubt; inactive = no such curve, though single readings can be large; an effect the other way counts as inactive or inconclusive;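 note: plate controls were enzyme without inhibitor for no effect and buffer without enzyme for full effect; nearly all actives have a fitted effect of over 40% in size; top concentration of the series not given in the record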
Target sequence (P25779 123-467 limits assumed): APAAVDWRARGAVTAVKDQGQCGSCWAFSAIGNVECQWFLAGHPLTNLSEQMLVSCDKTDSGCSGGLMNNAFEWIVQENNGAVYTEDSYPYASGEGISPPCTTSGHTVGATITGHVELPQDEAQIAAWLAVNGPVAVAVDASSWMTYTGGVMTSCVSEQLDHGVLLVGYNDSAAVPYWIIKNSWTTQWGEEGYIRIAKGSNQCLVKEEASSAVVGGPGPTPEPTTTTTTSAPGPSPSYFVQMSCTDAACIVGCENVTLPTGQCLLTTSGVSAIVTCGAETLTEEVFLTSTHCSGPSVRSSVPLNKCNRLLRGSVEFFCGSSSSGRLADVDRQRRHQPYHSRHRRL
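Purified cruzain at 1.5 nM, pre-incubated 15 min with compound at room temperature in 100 mM sodium acetate pH 5.5, 5 mM DTT, 0.00005% Triton X-100. Reaction started with 2 uM Z-FR-AMC; AMC fluorescence increase over 60 s gives rate.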
Cruzain inh Det – blocks cruzain activity in presence of Triton detergent | P25779 | purified cruzain, Z-FR-AMC fluorescence, 0.01% Triton | Potency, µM, for the others: max response, negative = inhibition, hits mostly inhibitors | actives 0.43% (n = 200,000) | AID 1478; active = well fitted curve in the direction sought with a large enough effect; inconclusive = small, poorly fitted or top-dose-only effect, or another doubt; inactive = no such curve, though single readings can be large; an effect the other way counts as inactive or inconclusive;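 note: plate controls were neutral wells for no effect and buffer without enzyme for full effect; nearly all actives have a fitted effect of over 40% in size; top concentration of the series not given in the record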
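Compounds were screened in titration against cruzain (1.5 nM) with 0.01% Triton X-100 to counter colloidal aggregation. Activity was the AMC fluorescence increase over 60 s after adding 2 uM Z-FR-AMC at pH 5.5.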
2A StopGo – FMDV 2A StopGo reporter, luciferase signal. AID 1159524. Potency, µM (top dose mostly 57.9 µM), inactives show at the highest dose signal change, negative = less light. actives 1.2% (n = 410,000). human cells with a luciferase reporter of 2A StopGo recoding; control for the full effect not named in the record; active = well fitted falling curve with a large enough effect; inconclusive = small, poorly fitted or top-dose-only effect; inactive = no such curve, though single readings can be large or run the other way; tested in HEK293T cells; note: % is set by controls: 0 for no effect and ±100 for the full control effect; nearly all actives have a fitted effect of over 45% in size; luciferase light after 4 h
RE007 growth inh – less growth of the S. pombe RE007 Vpr strain. S. pombe RE007 Vpr strain, BacTiter-Glo ATP luminescence, 24 h; control for the full effect not named in the record. actives 0.21% (n = 360,000). Potency, µM (doses to about 92.2 µM), inactives show at the top dose activity change, negative = less growth; active = well fitted falling curve with a large enough effect; inconclusive = small, poorly fitted or top-dose-only effect; inactive = no such curve, though single readings can be large or run the other way;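 note: % is set by controls: 0 for no effect and ±100 for the full control effect; nearly all actives have a fitted effect of over 50% in size; the assay follows cell death caused by Vpr and the record does not say whether a fall means rescue or toxicity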
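Fission yeast RE007 carrying one integrated HIV-1 vpr copy, seeded at OD 0.01 in PMG+AL medium with 23 nL pinned compound. Grown 24 h at 30 degrees; viability read by BacTiter-Glo luminescence after 5 min.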
NS1 function inh – influenza NS1 inhibition; Potency, µM (doses to about 46.1 µM), for inactives: at the top dose activity, positive = more growth; AID 2326; actives 0.4% (n = 270,000); S. cerevisiae slowed by influenza A NS1, growth recovery by OD600; note: actives are rising curves; nearly all actives have a fitted effect of over 50% in size
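Growth recovery, yeast-based: influenza A NS1 expressed in S. cerevisiae causes slow growth, and suppressors are detected by OD600. The parent strain without NS1 is used as positive control.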
Numbers without * were called inactive; [ ] = dose if it differs, or a comment. Unless noted, calls come from the whole dose curve; as a rule, active means well fitted rising curve with a large enough effect; inconclusive means small, poorly fitted or top-dose-only effect; inactive means no such curve, though single readings can be large or run the other way. Potency is the fitted concentration of half-maximal effect.

Cc1ccc(C(=O)N(C)CC(=O)Nc2ccc(F)c(F)c2F)o1 was read as Lassa entry inh 1%, SARS PLP yeast -1%, Marburg entry inh 13%, 2A StopGo -9% and RE007 growth inh -9%.
For O=C(Nc1ncnc2sc3c(c12)CCC3)c1ccco1 the results were Lassa entry inh 15%, SARS PLP yeast -1%, Marburg entry inh -5%, Cruzain inh noDet 10%, Cruzain inh Det -5.7%, RE007 growth inh 13% and NS1 function inh 2%.
`Cc1nnc(N2CCN(c3cccc(C(F)(F)F)c3)CC2)c2c1nnn2Cc1ccccc1` gave Lassa entry inh -15%[46.1 µM], Marburg entry inh -9%[46.1 µM], Cruzain inh noDet -4%, Cruzain inh Det -3.1% and 2A StopGo inconclusive.
For CCN(CC)C(=O)c1ccc(COc2ccccc2Br)o1 the results were Lassa entry inh -15%, SARS PLP yeast -2%, Marburg entry inh -18%, Cruzain inh noDet -9%, Cruzain inh Det -17%, 2A StopGo -14%, RE007 growth inh -9% and NS1 function inh -63%.
For Cn1c(SCC(=O)Nc2cc(S(=O)(=O)N3CCOCC3)ccc2N2CCOCC2)nnc1-c1ccncc1 the results were Lassa entry inh 24%, SARS PLP yeast 6%, Marburg entry inh 16%[46.1 µM], 2A StopGo 8% and RE007 growth inh 9%.
CNC(=O)NC(=O)CSc1nnc(-c2ccco2)n1Cc1ccccc1 was read as Lassa entry inh 9%, SARS PLP yeast 6%, Marburg entry inh -2%, Cruzain inh noDet 8%, Cruzain inh Det 2.9%, 2A StopGo 0%, RE007 growth inh 18% and NS1 function inh -2%.
For Nc1nc(Cl)cc(N2CCC(c3cc(-c4ccc(Cl)cc4Cl)n[nH]3)CC2)n1 the results were Lassa entry inh inconclusive, SARS PLP yeast -23%, Marburg entry inh inconclusive, Cruzain inh noDet -4%, Cruzain inh Det -0.5%, 2A StopGo inconclusive, RE007 growth inh 13% and NS1 function inh -50%.
Cc1ccc(CNC(=O)C(NS(=O)(=O)c2ccc3nc(C)sc3c2)C(C)C)cc1 (stereo not drawn) was read as SARS PLP yeast 4%, Cruzain inh noDet -3%, Cruzain inh Det 4.1%, 2A StopGo 5%, RE007 growth inh -5% and NS1 function inh 10%.
For CCOC(=O)Nc1ccc2c(c1)Nc1ccccc1S2 the results were Lassa entry inh -15%, SARS PLP yeast -7%, Marburg entry inh inconclusive, Cruzain inh noDet 25µM*, Cruzain inh Det -11%, 2A StopGo inconclusive, RE007 growth inh -22% and NS1 function inh -11%.
Screening CCCc1nn2c(=O)c(C(c3ccc(C)cc3)c3c(O)nc4sc(CCC)nn4c3=O)c(O)nc2s1 returned Lassa entry inh 1%, SARS PLP yeast 7%, Marburg entry inh 15%, Cruzain inh noDet -2%, Cruzain inh Det -1.0%, 2A StopGo -4%, RE007 growth inh -3% and NS1 function inh inconclusive.
Screening COCCn1c(SCC(=O)NC2CCCCC2C)nnc1-c1ccncc1 (stereo not drawn) returned Lassa entry inh 3%[46.1 µM], SARS PLP yeast 3%, Marburg entry inh 4%[46.1 µM], 2A StopGo -15%, RE007 growth inh -6% and NS1 function inh 7%.
Screening CCOC(=O)Cc1c(C)nc(N)[nH]c1=O returned Lassa entry inh -12%, SARS PLP yeast 4%, Marburg entry inh 6%, 2A StopGo -14%, RE007 growth inh 14% and NS1 function inh 5%.
Screening CCOc1ccc(NS(=O)(=O)c2ccc(C(=O)N3CCCC(C)C3)cc2)cc1 (stereo not drawn) returned Lassa entry inh inconclusive, SARS PLP yeast 0%, Marburg entry inh inconclusive, 2A StopGo 0% and RE007 growth inh -5%.
`COc1ccnc2c1c(=O)n(Cc1ccc(Cl)cc1)c(=O)n2C` gave SARS PLP yeast -77%, 2A StopGo -12%, RE007 growth inh 4% and NS1 function inh -110%.
Screening CC(=O)N1c2ccc(S(=O)(=O)N3CCC(C(=O)Nc4ncccc4C)CC3)cc2CC1C (stereo not drawn) returned SARS PLP yeast 1%, 2A StopGo -6%, RE007 growth inh -4% and NS1 function inh -4%.
COc1ccc(NC(=O)Cn2c(=O)n(CCc3ccccc3)c(=O)c3sc4ccccc4c32)cc1 was read as Lassa entry inh -4%[46.1 µM], Marburg entry inh 21%[46.1 µM], Cruzain inh noDet 0%, Cruzain inh Det -0.2% and 2A StopGo 36%[activator].
`Cc1nc(SC(C)C(=O)NCc2ccc3c(c2)OCO3)nc(C)c1C` (stereo not drawn) gave Lassa entry inh 14%, SARS PLP yeast -1%, Marburg entry inh 24%, 2A StopGo -17% and RE007 growth inh 17%.
CC(OC(=O)C1CCC(=O)N1)C(=O)Nc1cc(Cl)cc(Cl)c1 (stereo not drawn) was read as Lassa entry inh 3%, SARS PLP yeast 3%, Marburg entry inh 37%, Cruzain inh noDet -3%, Cruzain inh Det -8.4%, 2A StopGo -16%, RE007 growth inh 10% and NS1 function inh 12%.
`CCOc1ccc(-n2c(Cc3cc(=O)[nH]c(=O)[nH]3)nnc2SCC(N)=O)cc1` gave Lassa entry inh -1%, SARS PLP yeast 6%, Marburg entry inh 3%, Cruzain inh noDet -13%, Cruzain inh Det -0.5%, 2A StopGo 0%, RE007 growth inh 17% and NS1 function inh -9%.
COc1cc(C(=O)NCCC(=O)NC2CCCCCCC2)cc(OC)c1OC was read as Lassa entry inh inconclusive, SARS PLP yeast -3%, Marburg entry inh -7%, Cruzain inh noDet 9%, Cruzain inh Det 1.4%, 2A StopGo -27%, RE007 growth inh 7% and NS1 function inh 1%.
Screening CC(=O)c1cccc(OCc2cc(C(=O)N3CCC(N4CCCCC4)CC3)no2)c1 returned SARS PLP yeast -2%, 2A StopGo -14%, RE007 growth inh -2% and NS1 function inh 3%.
CC(=O)Nc1ccc(NC(=O)C23CC4CC(C2)CC(n2cnc(Br)n2)(C4)C3)cc1 was read as Lassa entry inh -17%, SARS PLP yeast 0%, Marburg entry inh -5%[46.1 µM], 2A StopGo -1%, RE007 growth inh 3% and NS1 function inh 1%.
For CN(/N=C/c1ccccc1Cl)c1ncc(Cl)cc1C(F)(F)F the results were Lassa entry inh -15%[46.1 µM], SARS PLP yeast 0%, Marburg entry inh inconclusive, 2A StopGo -14%, RE007 growth inh -6% and NS1 function inh -3%.
Screening CC(=C/C(=O)O)/C(=C/c1ccccc1)C(=O)O returned Lassa entry inh 4%, SARS PLP yeast -31%, Marburg entry inh -28%, Cruzain inh noDet -6%, Cruzain inh Det 0.6%, 2A StopGo -2%, RE007 growth inh -23% and NS1 function inh -10%.
COc1cc(CC(=O)OCC(=O)Nc2ccc3c(c2)OCO3)cc(OC)c1OC was read as Lassa entry inh -2%[46.1 µM], SARS PLP yeast -2%, Marburg entry inh 13%[46.1 µM], 2A StopGo -12%, RE007 growth inh 11% and NS1 function inh 13%.
For Cc1nn(C(C)c2n[nH]c(=S)n2-c2ccc(F)cc2)c(C)c1[N+](=O)[O-] (stereo not drawn) the results were Lassa entry inh 4%, SARS PLP yeast 13%, Marburg entry inh 29%, Cruzain inh noDet -8%, Cruzain inh Det -1.4%, 2A StopGo 16%, RE007 growth inh 4% and NS1 function inh -5%.
For CCOc1cccc(CNn2cnnc2)c1OCc1ccccc1 the results were Lassa entry inh -2%, SARS PLP yeast -7%, Marburg entry inh -22%, Cruzain inh noDet -6%, Cruzain inh Det -2.0%, 2A StopGo 13%, RE007 growth inh 11% and NS1 function inh 5%.
CCn1c(/C=C/c2cc[n+](C)cc2)nc2ccccc21 was read as Lassa entry inh 9%[46.1 µM], SARS PLP yeast 2%, Marburg entry inh 5%[46.1 µM], 2A StopGo -23%, RE007 growth inh -11% and NS1 function inh 15%.
For Cc1cccc(CSc2ccc(-c3ccco3)nn2)c1 the results were Lassa entry inh 11%, SARS PLP yeast -34%, Marburg entry inh -1%, Cruzain inh noDet 8%, Cruzain inh Det -13%, 2A StopGo 35%[activator], RE007 growth inh -21% and NS1 function inh 6%.
`CCC(=O)N1CCN(c2ccc(NC(=O)c3ccco3)cc2Cl)CC1` gave Lassa entry inh inconclusive, SARS PLP yeast -5%, Marburg entry inh 18%, 2A StopGo 20%, RE007 growth inh 9% and NS1 function inh -16%.

Retrieved by structure from above, 2 records:
Screening CC(=C/C(=O)O)/C(=C/c1ccccc1)C(=O)O returned Lassa entry inh 4%, SARS PLP yeast -31%, Marburg entry inh -28%, Cruzain inh noDet -6%, Cruzain inh Det 0.6%, 2A StopGo -2%, RE007 growth inh -23% and NS1 function inh -10%.
For CN(/N=C/c1ccccc1Cl)c1ncc(Cl)cc1C(F)(F)F the results were Lassa entry inh -15%[46.1 µM], SARS PLP yeast 0%, Marburg entry inh inconclusive, 2A StopGo -14%, RE007 growth inh -6% and NS1 function inh -3%.

More structures
O=C(CSc1nnc(CNC(=O)c2c(F)cccc2F)o1)c1ccccc1 was read as Lassa entry inh 0%, SARS PLP yeast 1%, Marburg entry inh 19%, 2A StopGo -6%, RE007 growth inh -22% and NS1 function inh 6%.
`COc1ccc(-c2nc3c(s2)CCc2onc(-c4ccc(OC)cc4)c2-3)cc1` gave SARS PLP yeast 2%, 2A StopGo -8%, RE007 growth inh 9% and NS1 function inh -1%.
For CC(=O)Nc1cn(C(C)=O)c(C)n1 the results were SARS PLP yeast -3%, Marburg entry inh -4%, Cruzain inh noDet -2%, Cruzain inh Det -2.3% and NS1 function inh 3%.
`O=C(NCc1ccccc1)C(c1ccccc1)N(Cc1cccs1)C(=O)c1cnccn1` (stereo not drawn) gave Lassa entry inh -6%, SARS PLP yeast 5%, Marburg entry inh 21µM*, Cruzain inh noDet -1%, Cruzain inh Det 1.7%, 2A StopGo -2%, RE007 growth inh -2% and NS1 function inh 0%.
Cc1ccc(/C(O)=C2\C(=O)C(=O)N(CC(C)O)C2c2ccc(N(C)C)cc2)cc1 (stereo not drawn) was read as Lassa entry inh 1%, SARS PLP yeast -7%, Marburg entry inh inconclusive, Cruzain inh noDet 1%, Cruzain inh Det -3.1%, 2A StopGo -21%, RE007 growth inh 1% and NS1 function inh -4%.
